Screens deposited in PubChem by National Center for Advancing Translational Sciences (NCATS).
2A Renilla: lowers the Renilla signal of an FMDV 2A StopGo reporter | 0.32% of 120,000 active | Potency, µM (titrated, usually from 57.5 µM), without a hit: at the top dose signal change, negative = less light | HEK cells with a luciferase reporter of 2A StopGo recoding; active means well fitted falling curve with a large enough effect; inconclusive means small, poorly fitted or top-dose-only effect; inactive means no such curve, though single readings can be large or run the other way; further: nearly all actives have a fitted effect of over 55% in size; overnight with compound
StopGo FLuc: FMDV 2A StopGo reporter, firefly signal; 0.23% of 120,000 active; HEK cells with a luciferase reporter of 2A StopGo recoding; Potency, µM (doses to about 57.5 µM), for inactives: at the highest dose signal change, negative = less light; active = well fitted falling curve with a large enough effect; inconclusive = small, poorly fitted or top-dose-only effect; inactive = no such curve, though single readings can be large or run the other way; further: nearly all actives have a fitted effect of over 60% in size; overnight with compound
* marks the source's active call; other numbers are inactive results; ? = inconclusive; & = joins results of further samples; [ ] = remark or other dose. On the % scale 0 is the no-effect control and ±100 the full control effect; potency means the concentration at half of the fitted maximal effect.

Molecule | 2A Renilla | StopGo FLuc
Cc1ccc(NC(=O)Nc2ccc3nc(N4CCN(C)CC4)cc(C)c3c2)cc1C | -15% | 13%
COc1ccc(CN2COc3ccc4c(C)cc(=O)oc4c3C2)cc1 | -9% | -4%
O=C(c1ccccc1)C1CCN(C(=O)/C=C/c2cccc(C(F)(F)F)c2)CC1 | -8% | -19%
Nc1nc2ccc(OC(F)(F)F)cc2s1 | 66%[activator] | 154%[activator]
O=C(Nc1nnc(-c2cccnc2)s1)C(=O)c1c[nH]c2ccccc12 | -6% | 9%
NC(=O)c1ccc(NC(=O)Cn2ccc3c(Cl)cccc32)cc1 | -9% | -4%
CCN(CC)CCOC(=O)c1ccc(NC(=O)c2cc3cc(OC)ccc3oc2=O)cc1 | -8% | 9%
COc1ccccc1N1CCN(C(=O)CSc2n[nH]c(-c3ccccc3Cl)n2)CC1 | -2% | 0%
O=C(NCCCO)c1nc(-c2cccc3[nH]ccc23)no1 | 6% | 158%[activator]
Cc1ccc(NC(=O)CC2Sc3ccccc3NC2=O)c(C)c1 (stereo not given) | 44%[activator] | 15%
COc1cccc(C2=C(C(C)=O)Sc3nnc(-c4ccc(Cl)cc4)n3N2C(C)=O)c1 | -12% | -4%
Cc1c(Cl)cccc1NC(=O)CN1C(=O)c2ccccc2Sc2ncccc21 | -4% | -8%
CCOC(=O)CC(NC(=O)c1cc2cc(Br)ccc2oc1=O)c1ccc(OC)cc1 (stereo not given) | -4% | -4%
CCN(CC)CCOC(=O)c1ccc(NC(=O)c2cc3cccc(OC)c3oc2=O)cc1 | 0% | 43%[activator]
CC(=O)N1c2ccc(S(=O)(=O)NCC3CCC(C(=O)Nc4cc(C)cc(C)c4)CC3)cc2CC1C (stereo not given) | -12% | -10%
Cc1ccc(C)c2c(=O)cc(CSc3nnc(-c4ccccc4)n3C)[nH]c12 | ? | ?
CC(OC(=O)c1nn(C)c(=O)c2ccccc12)C(=O)N(Cc1ccccc1)Cc1ccccc1 (stereo not given) | 49%[activator] | 27%
CCOc1ccccc1NC(=O)Cn1c(=O)n(-c2ccc(C)c(C)c2)c(=O)c2oc3ccccc3c21 | -10% | -10%
CC(C)CN1CCN(c2nc3c(c(=O)[nH]c(=O)n3C)n2Cc2ccc(Cl)c(Cl)c2)CC1 | -9% | -1%
CCC(=O)c1ccc(OC(=O)c2cc3ccccc3oc2=O)cc1 | 0% | 15%
COc1ccc(CNC(=O)CCCn2c(C)c3cnn(-c4ccccc4)c(=O)c3c2C)cc1 | -6% | 147%[activator]
Cc1c(Cl)ccc2c(C(=O)NC3CCCCC3)cc(-c3ccccc3)nc12 | 0% | 0%
CCn1c2ccc(F)cc2c2nnc(SCCN3CCCCC3)nc21 | -8% | -8%
Cc1cc2oc(C(=O)Nc3ccccc3Cl)cc(=O)c2cc1C | -12% | -13%
CCC(CC)C(=O)Nc1cccc2c1CCCC2 | 23% | 0%
COc1ccc(OC)c(S(=O)(=O)Nc2ccc3[nH]c(=O)[nH]c3c2)c1 | 21% | -15%
C=CCNC(=S)NC1CC1 | 7% | 6%
O=C(/C=C/c1cccs1)Nc1ccc2c(c1)CCC2 | 48%[activator] | 281%[activator]
O=S(=O)(Nc1nc2ccccc2nc1Nc1ccc(Cl)c(Cl)c1)c1cccs1 | ? | 3%
CCN(CC(=O)NC(C)C)C(=O)CSc1nc2ccccc2o1 | -2% | 7%
Cc1cccc(S(=O)(=O)c2cn(Cc3ccccc3)c3cc(N4CCCCC4C)c(F)cc3c2=O)c1 (stereo not given) | -5% | -16%
CCOC(=O)c1c(S(=O)(=O)N2CCCC(C(=O)N(C)Cc3ccccc3)C2)c(C)n(C)c1C (stereo not given) | -7% | -1%
O=C(CN1C(=O)CC(c2ccccc2)=Nc2ccccc21)Nc1ccc(Br)cc1 | 121%[activator] | -16%
COc1cccc(Oc2c(C)oc3cc(O)ccc3c2=O)c1 | 5% | 8%
CC1=Nc2cc(C(=O)NCCc3ccc(Cl)cc3)ccc2Sc2ccc(C)cc21 | -6% | -27%
CN(C)CCCN1c2ccccc2Sc2ccc(C(F)(F)F)cc21 | 11% | -4%
Cc1cc2c(nc1C)oc1c(=O)n(CC(=O)N3CCCCC3)cnc12 | 0% | 14%
CN(C)CCc1c[nH]c2ccc(C[C@H]3COC(=O)N3)cc12 | 3% | 0%
Cc1cc(C)c2oc(C(=O)Nc3nnc(CC(C)C)s3)cc(=O)c2c1 | 24% | 36%
Cc1cc(C)c2c(CN3CCN(Cc4ccccc4)CC3)cc(=O)oc2c1 | -5% | -3%

Random excerpt: three records from the list.
Molecule | 2A Renilla | StopGo FLuc
O=C(/C=C/c1cccs1)Nc1ccc2c(c1)CCC2 | 48%[activator] | 281%[activator]
CCC(CC)C(=O)Nc1cccc2c1CCCC2 | 23% | 0%
COc1ccc(CNC(=O)CCCn2c(C)c3cnn(-c4ccccc4)c(=O)c3c2C)cc1 | -6% | 147%[activator]

Next part.
Molecule | 2A Renilla | StopGo FLuc
COc1cc(C(=O)Nc2cnc3ccccc3c2)ccc1C | 2% | 0%
CCCOc1ccc(C(=O)Nc2nonc2C)cc1 | 2% | 167%[activator]
Cc1oc(-c2ccccc2)nc1C(=O)Nc1nc(C2CC2)cs1 | -7% | 141%[activator]
CC1(C)C(=O)Nc2ccc(S(=O)(=O)Nc3ccccc3)cc21 | 246%[activator] | 24%
Cc1cc(C)cc(NC(=S)NCCC(C)C)c1 | 306%[activator] | 22%
N#Cc1nc(-c2ccc(S(=O)(=O)N3CCCCC3)cc2)oc1NCc1ccco1 | 21% | 6%
CSc1ccc(/C=C/C(=O)c2ccccc2)cc1 | 15% | 157%[activator]
CC(=O)C(=Cc1ccc(-c2cccc([N+](=O)[O-])c2)o1)C(C)=O | 0% | 0%
CCNC(=O)C(C)NC(=O)C1(c2cccc(C)c2)CCCC1 (stereo not given) | -1% | 5%
N#Cc1ccc(C=Nc2ccc(OC(F)(F)C(F)F)c(N=Cc3ccc(C#N)cc3)c2)cc1 | 5% | 26%
O=C1Nc2c(c(=O)[nH]c(=O)n2-c2ccc(Cl)cc2)C1(NS(=O)(=O)c1ccccc1)C(F)(F)F (stereo not given) | -9% | -22%
Cc1ccc(CNC(=O)CN2Cc3ccccc3C2=O)cc1 | -7% | 22%
CCC(C(=O)Nc1ccccc1OC)n1nc(C)c2sc3ccccc3c2c1=O (stereo not given) | 3% | -18%
O=C(c1ccccc1Cl)n1nc(-c2cccnc2)nc1NCc1ccc(F)cc1 | -7% | 3%
CCOCCCNC(=O)c1c(NC(=O)c2cc(=O)c3ccccc3o2)sc2c1CCC2 | -3% | 7%
COc1ccc(CCNC(=O)CCn2c(=O)c3cccn3c3cccnc32)cc1OC | -7% | -4%
Cn1c(=O)c2c(nc(NCc3ccc4c(c3)OCO4)n2Cc2ccccc2Cl)n(C)c1=O | 3% | 1%
Cc1ccc2c(c1)C(O)(CC(=O)c1cccs1)C(=O)N2 (stereo not given) | 7% | 9%
COc1ccc(N2CCN(S(=O)(=O)c3c(C)nc4scc(C)n4c3=O)CC2)cc1 | -6% | -13%
Cc1ccc(S(C)(=O)=O)cc1NCc1ccccc1F | 24% | 16%
c1ccc(CC2CNC2)cc1 | -13% | -1%
CN(C(=O)CCc1cccs1)C1CCCCC1 | 11% | 106%[activator]
COc1ccc(NC(=O)CSc2nc3ccccc3n2CC(=O)N2CCCC(C)C2)cc1 (stereo not given) | 5% | -4%
CCC(C)n1c(SCc2ccc(C(C)(C)C)cc2)nc2ccsc2c1=O (stereo not given) | -8% | -12%
Cc1ccc2c(C(=O)O)cc(-c3cccs3)nc2c1C | 12% | 14%
CCOC(=O)c1cnc2c(C)cc(C)cc2c1Nc1cccc(O)c1 | 1% | -3%
CCCCn1c(Oc2cccc(C(=O)OC)c2)nc2c1c(=O)n(C)c(=O)n2C | 25% | 25%
Cc1oc(-c2nc(C#N)c(NCc3ccc(F)cc3)o2)cc1S(=O)(=O)N(C)C | 68%[activator] | 34%[activator]
CC(C)NC[C@@H](O)COc1cccc2ccccc12 | -13% | -11%[11.5 µM]
O=C(N/N=C/c1ccc(Cl)c(Cl)c1)c1cccs1 | 13% | 194%[activator]
CCc1nc2nc(C)cc(Nc3ccc(OC)cc3)n2n1 | -3% | -4%
COc1ccccc1C1=NOC(C(=O)NCCc2ccccc2)C1 (stereo not given) | 8% | 27%
CCCCOC(=O)c1ccc(OC(=O)c2sc3ncn(Cc4cccc(F)c4)c(=O)c3c2C)cc1 | 3% | -15%
CC(=O)COc1ccc2c(C(F)(F)F)cc(=O)oc2c1 | 4% | 16%
COc1cc(Br)cc2cc(S(=O)(=O)c3ccccc3)c(=O)oc12 | 11% | 19%
CC(C)=CCOc1ccc2c(=O)c(Oc3ccccc3)c(C)oc2c1 | 7% | 34%[activator]
N#CCCCSc1nnc(-c2c[nH]c3ccccc23)n1C1CC1 | -4% | 1%
CCn1c(SCC(=O)Nc2cccc(C(F)(F)F)c2)nc2c(c1=O)SCC2 | -8% | -8%
CC1(C)NC(=O)N(Cc2coc(-c3cccc(Cl)c3)n2)C1=O | -1% | 144%[activator]
CCCc1cc(=O)[nH]c(SCc2nc(-c3ccc(OC)cc3OC)no2)n1 | 19% | 23%

Two of these compounds, set out differently.
Molecule: CCC(C(=O)Nc1ccccc1OC)n1nc(C)c2sc3ccccc3c2c1=O (stereo not given)
  2A Renilla = 3%	StopGo FLuc = -18%
Molecule: CCC(=O)c1ccc(OC(=O)c2cc3ccccc3oc2=O)cc1
  2A Renilla = 0%	StopGo FLuc = 15%

Going on with the list.
Molecule | 2A Renilla | StopGo FLuc
Nc1c(Cl)cc(NC(=O)c2cnc3ccccc3n2)cc1Cl | 23% | 96%[activator]
CC(C)C(C)(C#N)NC(=O)CN(C)CC1CCCCC1 (stereo not given) | 31%[activator] | 5%
CCOc1ccc2nc(SCC(=O)Nc3ccc(F)cc3)nc(-c3ccccc3)c2c1 | 3% | 3%
CCOC(=O)c1cccc(NC(=O)CC2C(=O)N(c3ccc(F)cc3)C(=O)N2Cc2cccc(OC)c2)c1 (stereo not given) | 26% | 1%
COC(=O)[C@H](CC(C)C)N(CCc1cn(Cc2ccccc2)nn1)S(=O)(=O)c1ccc(F)cc1Br | 102%[activator] | -9%
CC1CCN(C(=O)CN2CCCC(c3nc4ccccc4o3)C2)CC1 (stereo not given) | 4% | 4%
COc1ccc(COc2ccc3c(=O)c(-c4ccccc4OC)coc3c2)cc1 | 1% | 11%
CCSc1nnc(-c2nn(C)c3c2CN(S(=O)(=O)c2ccc(OC)cc2)CC3)n1C | 46%[activator] | 3%
COc1ccc(-c2cc(=O)oc3c4c(ccc23)OCN(Cc2cccc(OC)c2)C4)cc1 | -13% | -19%
CCCCCOC(=O)c1c(C)oc2ccc(NS(=O)(=O)c3cccs3)cc12 | 61%[activator] | 0%
CCOc1ccccc1CNC(=O)CC(C)n1ccc(C)n1 (stereo not given) | 1%&8% | 2%&-15%
COc1ccc(C2CC(c3ccccc3)=NN2C(=O)c2ccc(C)cc2)cc1 (stereo not given) | 12% | 5%
CC/C=C(/C)C(=O)NC(C)Cc1ccc(Br)cc1 (stereo not given) | 10% | 142%[activator]
N#CC(/C(=N/S(=O)(=O)c1ccccc1)c1ccccc1)c1nc2ccccc2s1 (stereo not given) | 1% | 28µM*
O=C(Nc1ccc(F)c(S(=O)(=O)N2CCOCC2)c1)C(Sc1ccccc1)c1ccccc1 (stereo not given) | 72%[activator] | ?
O=C(CCc1ncc(-c2ccccc2F)o1)N1CCOCC1 | 4% | 135%[activator]
COc1cc(C(=O)Nc2cc(Cl)ccc2O)ccc1OC(C)=O | 22% | 163%[activator]
O=C(NC(c1ccccc1)C1CC1)c1cc(Cl)nc(Cl)c1 (stereo not given) | 12% | 5%
Fc1ccc(N2CCN(Cc3csc4c3CCCC4)CC2)cc1 | -8% | 4%
CCCN(CCC)C(=O)C1CCCN(c2ncnc3c2nc2n3CCCCC2)C1 (stereo not given) | 0% | 1%
CC(C)CCOC(=O)C[N+](C)(C)CCOC1CC2CCC1(C)C2(C)C (stereo not given) | ? | ?
COc1ccc(C)cc1NC(=O)Cn1c(=O)oc2cc(S(=O)(=O)N3CCCCCC3)ccc21 | 3% | -22%

Laid out differently: results already given
Results follow in this order: 2A Renilla	StopGo FLuc
CC(C)CCOC(=O)C[N+](C)(C)CCOC1CC2CCC1(C)C2(C)C (stereo not given)
    ?	?
O=C(Nc1ccc(F)c(S(=O)(=O)N2CCOCC2)c1)C(Sc1ccccc1)c1ccccc1 (stereo not given)
    72%[activator]	?
CCOC(=O)c1cccc(NC(=O)CC2C(=O)N(c3ccc(F)cc3)C(=O)N2Cc2cccc(OC)c2)c1 (stereo not given)
    26%	1%
O=C(NC(c1ccccc1)C1CC1)c1cc(Cl)nc(Cl)c1 (stereo not given)
    12%	5%
CCCCCOC(=O)c1c(C)oc2ccc(NS(=O)(=O)c3cccs3)cc12
    61%[activator]	0%
